PMP22 txn – Cell-based coincidence reporter assay to measure PMP22 gene transcription in S16 Pmp22-F2sN cells - Primary screen; S16 Pmp22-F2sN Schwann cells (luciferase reporters placed in the Pmp22 gene), FLuc/NLuc coincidence luminescence, 24 h; Potency, µM (series often up to 57.5 µM), for inactives: at the top dose activity change, negative = inhibition, actives largely listed as inhibitors; 2% of 43,000 active; active = clear falling dose curves in both reporters; inconclusive = both reporters move, but less clearly or upward; inactive = either reporter flat; the % is the NLuc reporter signal; also: % is scaled to controls: 0 for no effect and ±100 for the full control effect; some results filed as inactive show a strong effect at the top dose
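qHTS, 1536-well. Cells seeded, compounds added by pin tool, 24 h 37C. Nano-Glo reagent 1 (lysis/FLuc), 10 min RT, read; Stop&Glo, 10 min RT, read NLuc.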
HTT promoter inh – Primary qHTS for Identification of Small Molecule Inhibitors of Huntingtin Promoter Activity. Potency, µM (doses to about 57.5 µM), inactives show at the highest dose activity change, negative = inhibition, hits mostly inhibitors. 0.93% of 48,000 active. HEK293 HTT promoter firefly luciferase reporter (activity 0% = vehicle and -100% = no light), 24 h. AID 1508623, 2021; active = well fitted inhibition curve with a large enough effect; inconclusive = small, poorly fitted or top-dose-only effect; inactive = no such curve, though single readings can be large or run the other way; also: nearly all actives have a fitted effect of over 50% in size
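HEK293 Fluc reporter, 2,500 cells/well, 24 h pre-culture; cpds up to 57.5 uM final, 24 h 37 degrees C; Dual-Glo, 10 min RT; normalized vehicle = 0%, zero RLU = -100%.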
The depositor's hits bear a star; u = inconclusive; x = no result given; & = joins results of further samples; [ ] = remark or other dose. Potency is read from the fitted curve at half-maximal effect. Outcome played no part in choosing rows. About 2.6% of those tested had a hit in this group.

molecule	PMP22 txn	HTT promoter inh
Cc1ccc(Cl)cc1N(C)C(=O)C1CCCN(c2ncnc3onc(-c4ccc(F)cc4)c23)C1 (centres undefined)	u	u
COc1ccc(NC(=O)CCc2nnc3n(CC(C)C)c(=O)c4ccccc4n23)cc1	-1%	1%
Cc1ccc(S(=O)(=O)c2nc(-c3ccccc3)oc2SCC(=O)NC2CCCCC2)cc1	u	-3%
CCOc1cccc(C(=O)Nc2ccc3oc(-c4ccncc4)nc3c2)c1	-10%	u
CCC(=O)N1CCc2cc(S(=O)(=O)NC(CC(C)C)C(=O)NCc3ccc(C)cc3)ccc21 (centres undefined)	-21%	-14%
CCCN(CCC)S(=O)(=O)c1ccc(C(=O)N2CCn3c4c(c5cc(C)ccc53)CCCC42)cc1 (centres undefined)	1%	-41%
Cc1ccc(C)c(N2CCN(C(=O)CCc3nnc4n(C)c(=O)c5ccccc5n34)CC2)c1	-15%	0%
O=C(NC1CCCCC1)c1ccc2c(c1)N(Cc1cccc(Cl)c1)C(=O)c1ccccc1S2=O (centres undefined)	-18%	-19%
CN(C)c1ccc(NC(=O)Cn2cc(S(=O)(=O)Cc3cccc(Cl)c3)c3ccccc32)cc1	-46%	-29%
Cc1ccccc1-c1nn2c(=O)cc(CN3CCN(S(=O)(=O)c4ccc(Cl)cc4)CC3)nc2s1	u	1%
Cc1ccc(NC(=O)CNC(=O)Cn2c(C)cc3ccccc3c2=O)cc1F	2%	-6%
Cc1oc2c(c1C(=O)Nc1ccc(F)c(F)c1)C1=NCCN1C=N2	5%	-9%
CCc1cnc2c(c1SCC(=O)NCc1ccccc1Cl)c(=O)n(C)c(=O)n2C	-19%	-5%
COc1cc(NC(=O)CN2C(=O)COc3ccc(S(=O)(=O)NC4CCCC4)cc32)cc(OC)c1	-5%	-4%
Cc1ccc(CSc2ncc(Cl)c(C(=O)Nc3nnc(C)s3)n2)cc1	14%	-20%
CCOc1ccc(CCNC(=O)Cn2c(-c3cccs3)cc3ccccc32)cc1	-1%	u
COc1ccc(-n2nc(C(=O)Nc3cc(C)ccn3)c3c4ccccc4n(C)c3c2=O)cc1	-9%	-8%
Cc1ccc(C(=O)COC(=O)c2cc(-c3ccc(Cl)cc3)nc3ccccc23)cc1	-62%	-5%
Cc1ccc(Sc2c(C)nn(-c3ccccc3)c2OC(=O)CC(C)C)cc1	-45%	-10%
Cc1cc(O)c2ccccc2c1O	x	u
CCOc1ccc(-c2cc(C(=O)NCCc3ccc(C)cc3)c3ccccc3n2)cc1	u	25%
O=C(c1ccccc1)c1ccc2nc(Nc3cc(Cl)ccc3O)c3nncn3c2c1	u	-11%
COc1ccc(N2CCN(CCCNC(=O)c3c(C)nn(-c4ccc(F)cc4)c3-n3cccc3)CC2)cc1	u	u
Cc1nc2ccn(Cc3cccs3)c(=O)c2cc1C(=O)N1CCN(c2ccccc2)CC1	3%	-10%
COc1ccc(CNC(=O)C2CCN(C(=O)N3CCOc4ccc(C)cc43)CC2)cc1	4%	-31%
COc1ccc(Cn2c(=O)c3cccnc3n(CC(=O)Nc3c(C)cc(C)cc3C)c2=O)cc1	-4%	6%
Cc1nn2c(=O)cc(COC(=O)COc3ccccc3C)nc2s1	u	-11%
CCC(=O)N1CCc2cc(S(=O)(=O)NC(Cc3ccccc3)C(=O)NCc3ccccc3)ccc21 (centres undefined)	32%	-21%
Cc1ccc(Nc2nnc(-c3ccc(C)c(S(=O)(=O)N4CCOCC4)c3)c3ccccc23)c(C)c1	u	u
COc1ccccc1C(=O)Nc1ccc(OCc2cc(=O)n3cc(C)sc3n2)cc1	-7%	-13%

As entered above:
Cc1ccc(C(=O)COC(=O)c2cc(-c3ccc(Cl)cc3)nc3ccccc23)cc1 @ PMP22 txn = -62%
CCC(=O)N1CCc2cc(S(=O)(=O)NC(Cc3ccccc3)C(=O)NCc3ccccc3)ccc21 (centres undefined) @ HTT promoter inh = -21%
Cc1ccc(NC(=O)CNC(=O)Cn2c(C)cc3ccccc3c2=O)cc1F @ PMP22 txn = 2%

Further structures.
molecule	PMP22 txn	HTT promoter inh
c1cnc(N2CCN(Cc3ccc4c(c3)OCO4)CC2)nc1	x	13%
Cc1ccc(-c2noc(CSc3nnc(-c4ccc(Cl)cc4)n3C)n2)cc1	-55%	-27%
C[C@@H]1CCN(C(=O)[C@H](CCCN=C(N)N)NS(=O)(=O)c2cccc3c2NC[C@H](C)C3)[C@@H](C(=O)O)C1	x	-2%
COc1ccc(-n2ccnc(NCc3ccccc3OC)c2=O)cc1	-28%	-26%
CCCOCc1cc(CN2CCN(c3cccc(Cl)c3)CC2)c(O)c2ncccc12	u	8.9µM*
CCOC(=O)c1cc(OC(=O)c2ccccc2Cl)n(-c2ccccc2)n1	-11%	-13%
Cc1ccc(N2CC(NC(=O)c3ccccc3C(F)(F)F)CC2=O)cc1C (centres undefined)	8%	-19%
COCCNC(=O)CCSc1nc(-c2ccc3c(c2)OCO3)cc(C(F)(F)F)n1	-2%	-22%
CC(NC(=O)c1ccc(Cn2c(SCc3ccccc3)nc3cccnc32)cc1)c1ccccc1 (centres undefined)	2%	-4%
COc1ccccc1-c1noc(-c2ccc(NCc3cccnc3)c([N+](=O)[O-])c2)n1	-27%	-6%
O=S(=O)(NCC(c1ccco1)N1CCN(c2ccccc2)CC1)c1cc(F)ccc1F (centres undefined)	-5%	-36%
CC1=Nc2cc(C(=O)N3CCC(C)CC3)ccc2Sc2ccc(Cl)cc21	u	u
COc1cccc(CNC(=O)c2c(O)nc3ccccn3c2=O)c1	u	-7%
Cc1cc2c(cc3c(SCc4cccc(F)c4)nnc(C)n32)o1	u	12%
Cc1ccc(OCCn2c(CNc3cccc(C)c3)nc3ccccc32)cc1	-28%	-26%
Cc1c(CNCCCc2ccccc2)c(C(=O)O)c(C)n1Cc1cccc(Cl)c1	-1%	-17%
CCOC(=O)C1CCC(CN(Cc2ccc(OC)cc2)S(=O)(=O)c2ccc(F)c(C(=O)Nc3c(C)cccc3C)c2)CC1 (centres undefined)	0%	2%
CSc1ccc(CCNC(=O)CCc2c(C)nc3cc(-c4ccccc4)nn3c2C)cc1	-16%	2µM*
Cc1ccc(C)c(N2CCN(S(=O)(=O)c3cn(C)c(C)n3)CC2)c1	56%	-8%
Cc1ccc(C(=O)Nc2nc3nc(-c4ccccc4)cc(=O)n3[nH]2)cc1	33%	-6%
CC(C)c1ccc(-c2noc(SCC(=O)N3CCCCC3C)n2)cc1 (centres undefined)	u	-13%
CCn1c(CN2CCC(C)CC2)nc2cc(NC(=O)COc3ccc([N+](=O)[O-])cc3)ccc21	u	u
CCCCOc1cccc(C(=O)Nc2cccc(-c3nc4ncccc4o3)c2C)c1	u	u
COc1ccc(C(=O)N2CC(=O)Nc3ccc(Br)cc3C2c2ccc(F)cc2)cc1OC (centres undefined)	-11%	u
CCn1c(=O)c(=O)n(CC)c2cc(S(=O)(=O)Nc3ccc(C)cc3)ccc21	-1%	-13%
COc1ccc(Cn2c(CNC(=O)c3ccc(N(C)C)cc3)nc3cccnc32)cc1	6%	-9%
Cc1ccc(-c2nc3nc(C)cc(C)n3c2Nc2ccc3c(c2)OCCO3)cc1	15%	25%
COc1ccc(N2CCN(C(=O)C3Cc4ccccc4N3C(C)=O)CC2)cc1 (centres undefined)	u	-28%
CCCc1cc(=O)[nH]c(SCC(=O)N2CCN(c3ccccc3)CC2)n1	8%	-18%
Cc1cc(C)c(NC(=O)Cn2c(=O)n(Cc3ccc4c(c3)OCO4)c(=O)c3ccccc32)c(C)c1	u	-5%

The results go on:
Values in the order: PMP22 txn, HTT promoter inh
Cc1cc2c(cc1S(=O)(=O)N1CCCCC1)OCC(=O)N2
 : u, u
Cc1cccc(NC(=O)CN(C)S(=O)(=O)c2ccc3c(c2)CCC(=O)N3)c1C
 : 0%, -19%
CCC(=O)N1c2ccccc2CC1C(=O)NCCN1CCN(c2ccccc2F)CC1 (centres undefined)
 : u, -18%
CCN(CC)S(=O)(=O)c1ccc2c(c1)N(CC(=O)NCCCN1CCN(c3ccc(OC)cc3)CC1)C(=O)CO2
 : -14%, -9%
COc1nccc(-c2c(-c3ccc(F)cc3)ncn2C2CCNCC2)n1
 : x, u
Cc1ccc(CNC(=O)Cc2coc3cc(C)cc(C)c23)cc1
 : u, -8%
CCOC(=O)c1cnc2ccc(OC)cc2c1NCCc1ccccc1
 : u, 32µM*
Cc1nnc(C(=O)NC(C)(C)c2nc(C(=O)NCc3ccc(F)cc3)c(O)c(=O)n2C)o1
 : x, 10%&3%
CCC(C)Nc1nc2c(c(=O)[nH]c(=O)n2C)n1Cc1ccc(F)cc1 (centres undefined)
 : -17%, -14%
Cc1ccc(NC(=O)CSc2nccn2C2CCCC2)cc1
 : -19%, 9%
COc1ccc(CCNc2oc(COc3cccc(C)c3)nc2C#N)cc1OC
 : u, u
CCOC(=O)c1c(C)[nH]c(C)c1S(=O)(=O)NCC(=O)Nc1cccc(Cl)c1
 : 63%, -5%
COc1ccccc1NC(=O)CN1C(=O)c2ccccc2Sc2ccc(C(=O)N3CCCC3)cc21
 : -28%, -28%
COC(=O)c1ccc(-c2nc3cc(NC(C)=O)ccc3o2)cc1
 : -4%, 14%
CCOC(=O)CNC(=O)Nc1cc(C(=O)NCc2cccc(F)c2)ccc1N1CCCC1
 : -7%, -7%
CCOC(=O)c1noc2ncnc(Nc3ccc(C)c(F)c3)c12
 : 3%, 4%
COc1ccc(-c2nc(C)c(CCNC(=O)C(=O)Nc3c(C)cccc3C)s2)cc1OC
 : u, 1%
COc1cccc(N2CCN(C(=O)c3ccc(NC(=O)c4nsc5ccccc45)cc3)CC2)c1
 : u, 14µM*
CCOCCn1c(C2CCN(CCc3ccc(C(C)(C)C(=O)O)cc3)CC2)nc2ccccc21
 : x, -1%
Cc1oc(-c2cccc(Cl)c2)nc1CN1CCC(C(=O)NCCc2ccc(Cl)cc2)CC1
 : -22%, -13%
Cc1ccc(CNC(=O)C2CCN(S(=O)(=O)c3c(C)noc3/C=C/c3cccs3)CC2)cc1
 : -42%, -15%
Cc1cc(C(=O)NCc2cccc(Br)c2)c2c(C)nn(-c3ccccc3)c2n1
 : -13%, -10%
Cc1nn(CC(=O)NCc2ccc(OC(C)C)cc2)c(=O)c2c(C)n(-c3ccc(Cl)cc3)nc12
 : u, 1%
NCC(=O)Nc1ccc(-n2nc(C(F)(F)F)cc2-c2ccc3c(ccc4ccccc43)c2)cc1
 : x, -14%
COc1ccc(NC(=O)c2sc3nc[nH]c(=O)c3c2C)cc1OC
 : u, 7%
CCc1cccc(C)c1Nc1c(-c2ccc(SC)cc2)nc2sccn12
 : u, 15%
CCc1ccc(NC(=O)CSc2ccc3nnc(CCNS(=O)(=O)c4ccc(OC)cc4)n3n2)cc1
 : -22%, -1%
Cc1cc(-c2ccc(S(=O)(=O)Nc3ccc(Cl)cc3)cc2)on1
 : u, u
CCOC(=O)c1ccc(NC(=O)c2oc3ccc4c(c3c2C)C(=O)CC(C)(CC)O4)cc1 (centres undefined)
 : u, u
Cc1c(Cl)cccc1NC(=O)CSc1nc(=O)n(CCN2CCOCC2)c2c1CCC2
 : -9%, -23%
CCOC(=O)c1cc(-c2ccc(F)cc2)n(CC(=O)NC2CCCCCC2)c1C
 : u, -32%
O=C(NCCc1ccc(Cl)cc1)c1ccc(CS(=O)Cc2ccccc2Cl)o1 (centres undefined)
 : u, u
Cn1c(=O)n(-c2ccc3c(c2)OCO3)c2nc(-c3ccccc3)nc(C(N)=O)c21
 : -17%, -9%
CCOC(=O)C1CCN(C(=O)c2ccc(-n3ccc4ccccc43)s2)CC1
 : 4%, 42%[activator]
COc1ccccc1NC(=O)c1sc2nc(C)c(C(=O)Nc3ccc(C)cc3C)c(-c3ccccc3Cl)c2c1N
 : -9%, -6%
CCOC(=O)c1sc2ccccc2c1S(=O)(=O)Nc1ccc(N(C)C)cc1
 : u, u
O=S1(=O)c2ccccc2N(Cc2ccc(F)cc2)c2ccccc21
 : 11%, u

Full records from above. Order of screens: PMP22 txn, HTT promoter inh
CCOC(=O)c1cc(-c2ccc(F)cc2)n(CC(=O)NC2CCCCCC2)c1C in the list: u, -32%
COc1ccccc1NC(=O)c1sc2nc(C)c(C(=O)Nc3ccc(C)cc3C)c(-c3ccccc3Cl)c2c1N in the list: -9%, -6%
Cn1c(=O)n(-c2ccc3c(c2)OCO3)c2nc(-c3ccccc3)nc(C(N)=O)c21 in the list: -17%, -9%
O=S1(=O)c2ccccc2N(Cc2ccc(F)cc2)c2ccccc21 in the list: 11%, u
CCOC(=O)c1sc2ccccc2c1S(=O)(=O)Nc1ccc(N(C)C)cc1 in the list: u, u

Not a retest: 2 of the compounds above.
Values in the order: PMP22 txn, HTT promoter inh
CCOC(=O)C1CCN(C(=O)c2ccc(-n3ccc4ccccc43)s2)CC1
 : 4%, 42%[activator]
COc1ccccc1NC(=O)c1sc2nc(C)c(C(=O)Nc3ccc(C)cc3C)c(-c3ccccc3Cl)c2c1N
 : -9%, -6%
